gsp ag – qHTS for Agonist of gsp, the Etiologic Mutation Responsible for Fibrous Dysplasia/McCune-Albright Syndrome: qHTS | Potency, µM (highest dose often 76.9 µM), for the others: at the top dose activation (cAMP increase), usual class: activators | gsp mutant cells, cAMP HTRF, 30 min; control for the full effect not named in the record | 340,000 tested, 0.13% active; active = well fitted activation curve with a large enough effect; inconclusive = small, poorly fitted or top-dose-only effect, or another doubt; inactive = no such curve, though single readings can be large or run the other way; cell line not stated here;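 further: phosphodiesterase inhibitor Ro 20-1724 added with compounds to block cAMP breakdown; potency means the concentration at half of the fitted maximal effect; nearly all actives have a fitted effect of over 60% in size; about a fifth of the inactives were tested at one dose only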
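Cells stably selected in G418 were plated at 2000/well, grown 16-24 hr, then given compounds in DMSO with the PDE inhibitor […] (300 uM solution added) for 30 min at 37C; cAMP was read by HTRF.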
Menin MLL FP FL – qHTS Assay for Inhibitors Targeting the Menin-MLL Interaction in MLL Related Leukemias: Competition With Fluorescein Labeled MLL-derived Peptide; 290,000 tested, under 10 active; Fluorescence polarization, fluorescein-MLL peptide displacement from menin; FP activity change, % at 61.4 µM; inconclusive = falling polarisation curve, or a change in total fluorescence; inactive = total fluorescence flat and polarisation flat or rising; no compound was filed as active; the % refers to the polarisation; negative = inhibition;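 further: % of control where 0% means no effect; inhibitors lower the polarisation; unlabelled MLL peptide was the positive control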
ClpP mod – qHTS Assay for Activators of ClpP | ATP-dependent Clp protease proteolytic subunit (Bacillus subtilis (strain 168)), P80244 | purified B. subtilis ClpP, FRET peptide cleavage, 20 min | Potency, µM (series often up to 57.5 µM), for inactives: top-dose activity change, negative = active | 340,000 tested, 1.9% active; active = well fitted falling curve with a large enough effect; inconclusive = small, poorly fitted or top-dose-only effect; inactive = no such curve, though single readings can be large or run the other way; further: potency means the concentration at half of the fitted maximal effect; the source files actives as falling curves though it sought activators and does not explain the sign; nearly all actives have a fitted effect of over 65% in size; many hits overshoot -100%
Target sequence (P80244 whole entry, looked up): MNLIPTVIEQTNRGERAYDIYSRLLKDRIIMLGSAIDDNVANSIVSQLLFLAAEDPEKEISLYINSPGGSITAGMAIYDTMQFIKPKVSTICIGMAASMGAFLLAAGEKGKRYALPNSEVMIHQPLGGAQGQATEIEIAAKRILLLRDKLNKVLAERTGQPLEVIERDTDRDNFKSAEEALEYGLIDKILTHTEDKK
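Purified B. subtilis ClpP, 10 microg/mL final in Tris/HCl pH8 with KCl, BSA, glycerol and Tween-20, cleaved an Abz/nitrotyrosine-quenched decapeptide. Fluorescence (ex 320, em 430) was read at 0 and 20 min at room temperature. Delta was normalized to 5.8 microM ADEP and DMSO/no-enzyme controls.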
TRPV1 PAM – HTS Assay for Compounds that Act as Potentiators of the Vanilloid Receptor 1; potentiation, % at 8.33 µM; 320,000 tested, 0.02% active; TRPV1-expressing cells, Fluo-8 calcium influx, capsaicin EC20 potentiation; host cell line not named in the record; control for the full effect not named in the record; Transient receptor potential cation channel subfamily V member 1 (Homo sapiens), Q8NER1; active means potentiation above 80%; inconclusive means 30% to 80%; inactive means below 30%; further: 0% is about no effect
Target sequence (Q8NER1 whole entry, looked up): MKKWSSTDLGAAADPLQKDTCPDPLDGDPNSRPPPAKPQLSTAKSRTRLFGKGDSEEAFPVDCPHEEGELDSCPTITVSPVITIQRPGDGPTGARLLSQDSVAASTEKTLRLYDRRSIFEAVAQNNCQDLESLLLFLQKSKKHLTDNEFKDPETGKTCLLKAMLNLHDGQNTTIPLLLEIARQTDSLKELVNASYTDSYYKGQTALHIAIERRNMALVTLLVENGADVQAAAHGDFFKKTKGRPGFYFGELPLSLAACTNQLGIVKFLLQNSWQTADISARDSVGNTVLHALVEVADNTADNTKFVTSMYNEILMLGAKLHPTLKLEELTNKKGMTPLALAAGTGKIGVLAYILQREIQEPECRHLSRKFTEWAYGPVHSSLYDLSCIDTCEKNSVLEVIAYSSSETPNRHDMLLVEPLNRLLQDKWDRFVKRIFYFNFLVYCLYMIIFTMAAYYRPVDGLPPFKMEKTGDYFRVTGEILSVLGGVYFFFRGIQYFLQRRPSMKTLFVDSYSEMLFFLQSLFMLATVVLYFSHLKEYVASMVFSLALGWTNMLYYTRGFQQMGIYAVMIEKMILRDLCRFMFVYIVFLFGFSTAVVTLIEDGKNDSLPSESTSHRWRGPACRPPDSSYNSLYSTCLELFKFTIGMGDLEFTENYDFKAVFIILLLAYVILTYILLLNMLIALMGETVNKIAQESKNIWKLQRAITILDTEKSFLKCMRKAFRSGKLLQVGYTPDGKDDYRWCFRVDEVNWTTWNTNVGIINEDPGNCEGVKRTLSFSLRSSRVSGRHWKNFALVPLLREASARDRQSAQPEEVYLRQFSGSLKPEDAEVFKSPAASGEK
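Cells expressing TRPV1 were dye-loaded with Fluo-8 and read kinetically: 10 s baseline, 3 min after compound (agonist portion), then 2 min after EC20 capsaicin (allosteric enhancer portion). Calcium-bound dye fluorescence at 480/520 nm.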
Sfp PPTase inh – qHTS Assay for Inhibitors of Bacillus subtilis Sfp phosphopantetheinyl transferase (PPTase); 310,000 tested, 3.5% active; Potency, µM, without a hit: max response, negative = inhibition, most hits filed as inhibitors; AID 1490, 2009; Biochemical Sfp PPTase activity, qHTS; active means well fitted inhibition curve with a large enough effect; inconclusive means small, poorly fitted or top-dose-only effect, or another doubt; inactive means no such curve, though single readings can be large or run the other way;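 further: the enzyme is Sfp with the accession as filed and its product quenches rhodamine fluorescence; potency means the concentration at half of the fitted maximal effect; 0% = enzyme reaction without inhibitor and -100% = no enzyme wells; top concentration of the series not given in the record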
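Fluorescence-quenching assay with 15 nM Sfp, 5 uM rhodamine-CoA and 12.5 uM BHQ-2-labelled ybbR peptide in pH 7.6 Hepes/MgCl2 buffer. Enzyme was pre-incubated with compound for 15 min at room temperature. Rate was taken from the 30-min fluorescence change (525/598 nm).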
gsp antag – qHTS for Antagonists of gsp, the Etiologic Mutation Responsible for Fibrous Dysplasia/McCune-Albright Syndrome: qHTS; Potency, µM (titrated, usually from 76.9 µM), for the others: top-dose activity change, negative = inhibition, actives largely listed as inhibitors; 340,000 tested, 0.4% active; AID 624288, 2012; gsp-mutant cells, cAMP HTRF, 30 min; control for the full effect not named in the record; active = falling curve of any shape with a large fitted effect; inconclusive = falling curve, mostly with a smaller effect; inactive = flat or rising curve; cell line not stated here;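 further: intracellular cAMP measured with PDE inhibitor Ro 20-1724 present during compound exposure; potency means the concentration at half of the fitted maximal effect; on the % scale 0 is the no-effect control and ±100 the full control effect; nearly all actives have a fitted effect of over 65% in size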
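Cells, 2000/well, grown 16–24 h in DMEM 10% FBS with 0.5 mg/ml G418, then compounds plus […] (300 uM addition stock), 30 min at 37C. cAMP read by HTRF (cAMP-d2 and anti-cAMP antibody-K in lysis buffer) after 30 min RT.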
D2 PAM – Beta-Arrestin HTS for Positive Allosteric Modulators of the Human D2 Dopamine Receptor: Potentiators; DiscoveRx D2 beta-arrestin cells, luminescence, 90 min; 100% = 57 uM dopamine signal; potentiation, % (concentration not given with the values); 360,000 tested, 0.23% active; AID 624464, 2012; active = potentiation of 50% or more; inconclusive = 30% to 50%; inactive = 30% or less;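 further: compound concentration not given in the record; tested on top of an EC20 dose of dopamine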
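PathHunter D2 cells, attached overnight at 37 deg C, received compound in DMSO plus dopamine at EC20 (50 nM final) for 90 min at 37 deg C. Beta-arrestin recruitment was read as luminescence after 1 h with detection reagent at ambient temperature.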
Numbers without * were called inactive; ? = inconclusive; nt = no result given; [ ] = another dose, or the depositor's remark.

SMILES	gsp ag	Menin MLL FP FL	ClpP mod	TRPV1 PAM	Sfp PPTase inh	gsp antag	D2 PAM
CCOC(=O)N1CCN(S(=O)(=O)c2c(C)cc(C)cc2C)CC1	1%	?	0.2%	-4	2%	1%	-8
Cc1ccc(CNC(=O)c2ccccc2NC(=O)CSc2nnnn2C)cc1	4%	5.7	1.5%	-2	19%	2%	-1
O=C(CN(Cc1ccc(F)cc1)S(=O)(=O)c1ccccc1)N1CCCCC1	-35%[inhibitor]	-0.3	1.0%	-21	7%	2%	-10
O=C(NCCc1ccccc1)C1CCCN(S(=O)(=O)c2cccc3nsnc23)C1 (stereo unspecified)	-30%	-3.1	1.3%	2	10%	-1%	-10
COc1ccc(/C=C/c2c(-c3cccc(C)c3)oc3ccc(N4CCOCC4)cc23)cc1	46%	nt	3.6%	nt	nt	17%	-3
CC(NC(=O)CN1CCN(C(=O)c2cccs2)CC1)c1ccc(F)cc1F (stereo unspecified)	2%	nt	-0.5%	nt	nt	1%	-8
O=C(CSc1nnnn1-c1ccccc1)Nc1ccc(Cl)cc1	-15%	-0.1	3.0%	?	2%	4%	-8
Cc1ccc(C(=O)CCC(=O)N2CCC(C(N)=O)CC2)s1	-7%	nt	0.0%	13	nt	7%	-2
COc1ccccc1-c1sc2ccccc2c1-c1ccccc1OC	nt	nt	?	-8	nt	-14%	-2
Cc1cccc(S(=O)(=O)NCCc2cn3ccccc3n2)c1	-12%	-0.6	-4.0%	0	6%	4%	-6
CCCN(CCC)Cc1c(C(=O)N/N=C/C(C)=C\c2ccccc2)nnn1-c1nonc1N	?	3.5	nt	-10	?	?	-9
CSCC[C@H](NC(=O)C1CCN(S(=O)(=O)c2ccc(C)cc2)CC1)C(=O)NCC1CCCO1 (stereo partly specified)	7%	-1.4	-0.5%	16	17%	2%	-14
O=C(c1ccccc1)c1ccc(OCCCCN2CCCCC2)cc1	-2%	3.5	1.7%	2	-25%	-4%	-24
CCCCCOP(=O)(OCCCCC)C1(NS(=O)(=O)c2ccccc2)C=CC(=O)c2ccccc21 (stereo unspecified)	14%	-0.1	-26%	-2	11%	-2%	90*
CCCCN(CC)CCNC(=O)c1cc2c(C)nc3ccccc3c2o1	-9%	3.2	4.0%	-10	17%	5%	-10
COc1ccc(Cl)cc1S(=O)(=O)N1CCN(C(=O)c2cc(OC)c(OC)c(OC)c2)CC1	21%	1.9	-17%	15	5%	-13%	1
CCN1C(=O)[C@H]2[C@@H](c3ccc(C)cc3)N3C(=O)N(c4cccc(Cl)c4)C(=O)[C@@]3(CC(C)C)[C@H]2C1=O	-36%[inhibitor]	nt	-3.9%	-11	nt	-3%	-12
Cc1ccnc(NC(=O)C2CCN(S(=O)(=O)c3ccc4c(c3)CC(C)N4C(=O)C3CCC3)CC2)c1 (stereo unspecified)	-8%	0.9	nt	-2	9%	-26%	-5
Cn1c(SCC(=O)Nc2ccc(NC(=O)c3cccc(F)c3)cc2)nnc1-c1ccncc1	14%[15.4 µM]	0.0	nt	18	0%	8%	4
CCN(CC)c1cccc(OC(=O)c2cccnc2Cl)c1	-9%[15.4 µM]	-1.0	nt	-7	-29%	6%	-6
COC(=O)COc1ccc2cc(-c3ccccc3)c(=O)oc2c1	?	2.1	3.7%	-9	13%	?	6
CCN(c1ccccc1)S(=O)(=O)c1cc(NC(=O)COC(=O)C2CC2)ccc1Cl	25%	0.7	nt	-15	12%	-5%	-3
Cn1ncc(Cl)c1C(=O)Nc1ccncc1	8%	0.3	-1.2%	2	21%	1%	4
C=CCn1c(SCn2nnc3ccccc3c2=O)nc2scc(-c3cccs3)c2c1=O	10%	3.2	-0.6%	0	-10%	0%	6
CN1CCN(CCOc2cccc(Cl)c2)CC1	-23%	5.2	-0.5%	2	14%	12%	-34
CCCCC1S/C(=N/N=C/c2ccc(OC)cc2)N(Cc2ccc(OC)cc2)C1=O (stereo unspecified)	-46%	0.6	-2.3%	7	9%	1%	-8
COC(=O)c1cccc2c1C(=O)c1cc([N+](=O)[O-])ccc1-2	?	nt	-1.2%	nt	nt	nt	-7
CC(C)(C)OC(=O)N1CCC[C@H]1c1nnc(SCc2ccccc2F)o1	3%	0.6	-1.0%	-11	6%	2%	-7
COc1ccc(OCCSc2nnc(-c3ccc(OC)cc3)n2N)cc1	-17%	3.5	-1.8%	13	3%	7%	0
CCOCCCNC(=O)c1ccc(OC2CCN(C(C)=O)CC2)c(OC)c1	-37%[15.4 µM]	-1.6	-1.9%	11	4%	8%	-5
CC(Oc1ccc(-c2ccccc2)c(F)c1)c1ccn(S(=O)(=O)c2ccc(Br)cc2)n1 (stereo unspecified)	5%	-0.2	-0.2%	nt	9%	-5%	-19
C[C@H](NC(=O)OC(C)(C)C)c1nnc(SCC(=O)Nc2cccc(Cl)c2)o1	7%	-0.9	-0.8%	7	6%	-16%	-10
COc1ccc(N2CCN(C(CNC(=O)C(=O)NCCCn3ccnc3)c3cccnc3)CC2)cc1 (stereo unspecified)	0%	0.8	1.0%	19	5%	4%	-10
O=C(OCc1ccccn1)C1CCN(C(=O)c2ccc(Cl)cc2)CC1	20%[15.4 µM]	nt	nt	-20	nt	-3%	-3
COc1ccc(NC(=O)CCN2CCN(S(=O)(=O)c3cc(Cl)ccc3Cl)CC2)cc1	?	1.6	0.9%	-13	-4%	1%	-21
CN(CCc1ccccn1)C(=S)Nc1ccc(Cl)cc1Cl	3%	-0.4	-1.4%	-5	18%	5%	-4
O=C(c1cccc(-n2cccc2)c1)N1CCN(S(=O)(=O)c2c(F)cccc2F)CC1	?	nt	0.0%	-2	12%	-20%	-6
COc1ccc(C(=O)Nc2ccc(NC(=O)c3ccccc3OC)nc2)cc1	0%	1.9	nt	-5	9%	15%	1
COCCn1c(=NC(=O)/C=C/c2cccs2)sc2cc(NC(C)=O)ccc21	6%	7.0	1.4%	-3	-11%	-4%	-18
CC(=O)CCc1c(C)[nH]c2ccccc2c1=O	-20%	2.3	-4.5%	4	16%	13%	-2
COc1ccc(C2CC(c3ccccc3)=NN2C(=O)COC(=O)c2cc(S(=O)(=O)N3CCOCC3)ccc2Cl)cc1 (stereo unspecified)	?	3.2	?	1	-12%	11%	-11
CC(=O)Nc1ccc(NC(=O)c2ccc(N(C)S(=O)(=O)c3ccc(C)cc3)cc2)cc1	3%	nt	101%	2	9%	1%	5
CCCCc1c(C)nc2ccccc2c1SCCC(=O)O	?	4.8	0.7%	11	23%	7%	-11
c1ccc(CCNC2=NCCCS2)cc1	-5%	-0.2	-0.7%	16	15%	8%	-10
COc1ccccc1NC(=O)CCc1nnc2ccc(N3CCC4(CC3)OCCO4)nn12	21%	nt	-5.9%	10	10%	0%	-7

Single records (already shown). Order of screens: gsp ag, Menin MLL FP FL, ClpP mod, TRPV1 PAM, Sfp PPTase inh, gsp antag, D2 PAM
CN(CCc1ccccn1)C(=S)Nc1ccc(Cl)cc1Cl across the screens: 3%, -0.4, -1.4%, -5, 18%, 5%, -4
O=C(OCc1ccccn1)C1CCN(C(=O)c2ccc(Cl)cc2)CC1 across the screens: 20%[15.4 µM], nt, nt, -20, nt, -3%, -3

Following part
SMILES	gsp ag	Menin MLL FP FL	ClpP mod	TRPV1 PAM	Sfp PPTase inh	gsp antag	D2 PAM
COc1ccc(N2CCN(Cc3nc4c(c(=O)[nH]c(=O)n4C)n3CCCc3ccccc3)CC2)cc1	-17%	-0.9	-5.2%	9	7%	5%	-11
CCS(=O)(=O)N1CCC(C(=O)NCCCN2CCCC2)CC1	-6%	1.8	0.9%	3	22%	9%	-17
CCCOc1c(Cl)cc(/C=N/O)cc1OCC	7%	5.1	-1.6%	17	29%	-7%	19
Cc1ccc(/C=C2/SC(=S)N(C3CCCCC3)C2=O)o1	0%[15.4 µM]	?	nt	-15	-27%	12%	-6
CCc1ccc(S(=O)(=O)NC(=S)NC2CCCCC2)cc1	-2%	-7.0	nt	4	-4%	-2%	-20
CCCC(=O)Nc1cc(C(=O)O)ccc1Sc1ccc(C)cc1	-6%	-0.9	0.9%	3	-10%	-11%	-1
S=C1N(c2ccccc2)C(c2ccc(Br)cc2)N2CCCN12 (stereo unspecified)	9%[15.4 µM]	5.4	-2.6%	-16	8%	-14%	-1
O=C(NNC(=O)C1CCN(S(=O)(=O)c2ccc(Cl)cc2)CC1)c1ccccc1O	-8%	nt	4.0%	15	nt	-11%	0
C=CCn1c(=O)c2c3c(sc2n2c(Nc4ccccc4)nnc12)CCCC3	?	-3.4	-2.4%	-10	-14%	-18%	-8
CC1=CC(C)(C)N2C(=O)C3(C(C#N)=C(N)Oc4cc(C)oc(=O)c43)c3cccc1c32 (stereo unspecified)	?	2.7	-4.8%	-5	-6%	8%	-19
CCN(CC(=O)NCc1cccs1)C(=O)COc1ccc(C(N)=O)cc1	?	nt	-0.4%	-5	nt	11%	-1
Cc1ccc(-c2csc(N3CCC[C@@H]3C(=O)NCCn3c(C(F)(F)F)nc4ccccc43)n2)cc1	nt	-1.6	1.1%	19	-7%	-24%	3
CCOc1ccc(/C=N/NC(=O)CSc2n[nH]c(=O)[nH]c2=O)cc1OC	0%	?	nt	5	22%	8%	-10
Cc1cccc(C)c1OCC(=O)OC/C(O)=C(\C#N)c1nc2ccccc2[nH]1	-7%	19	-8.7%	4	24%	4%	4
CN(C)/C=C(/C(=O)c1ccccc1)S(=O)(=O)c1ccc(Cl)cc1	3%[15.4 µM]	3.4	nt	-24	9%	0%	-2
